D2 PAM: human D2 receptor positive allosteric modulation; DiscoveRx D2 beta-arrestin cells, luminescence, 90 min; 100% = 57 uM dopamine signal; potentiation, % (concentration not given with the values); 0.23% of 360,000 active; AID 624464; active = potentiation of 50% or more; inconclusive = 30% to 50%; inactive = 30% or less;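 also: compound concentration not given in the record; tested on top of an EC20 dose of dopamine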
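PathHunter beta-arrestin assay in DiscoveRx D2 cells. Compounds were added with an EC20 of dopamine (50 nM final) for 90 min at 37 deg C. Luminescence was read 1 h after detection reagent, with 57 uM dopamine as the EC100 control.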
TRPML1 agonist: activates the human TRPML1 channel; TRPML1-expressing cells, Ca2+ dye fluorescence, FDSS; host cell line not named in the record; reference of the full effect not given here; activation, % (test concentration not listed); 0.12% of 410,000 active; in the data active = activation above about 50%; inconclusive = about 30% to 50%; inactive = below about 30%; also: 0% is about no effect; the text of the record puts the active cut at 80%
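Calcium fluorescence on an FDSS kinetic reader gave the read-out. Tet-induced TRPML1-DL cells were plated overnight, dye-loaded (Ca8 with quencher, 45-90 min, room temperature, dark), then read 110 s after compound addition, and again 110 s after 4uM final 54-4 (EC80).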
CtBP-E1A inh: inhibitors of CtBP/E1A interaction. AID 651724. AlphaScreen GST-E1A/His-CtBP binding, 1536-well; active compounds read low; control for the full effect not named in the record. activity change, % (test concentration not listed). 0.49% of 340,000 active; in the data active means activity change below about -65%; inconclusive means about -30% to -65%; inactive means above about -30%; also: % is scaled to controls: 0 for no effect and ±100 for the full control effect
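In 5 uL wells, 23 nL compound meets equimolar GST-E1A and His-CtBP (5X stock 125 nM each) for 2 h, 37 °C. Beads (5X, 50 ug/mL) then 1 h, 37 °C, dark.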
D2 ag: human D2 receptor agonism in beta-arrestin assay; P14416; activation, % (test concentration not listed); DiscoveRx PathHunter D2 beta-arrestin, luminescence, 90 min; 100% = 57 uM dopamine signal; 0.084% of 360,000 active; AID 624465; in the data active = activation above about 40%; inconclusive = about 15% to 40%; inactive = below about 15%; also: compound concentration not given in the record; the text of the record calls up to 30% inactive
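Agonist mode: compounds alone added to overnight-plated D2 PathHunter cells for 90 min at 37 C, with 57 uM final dopamine (EC100) defining full response. Beta-arrestin recruitment detected by chemiluminescent reagent, read after 1 h at ambient temperature.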
Six1-Eya2 blk: Six1/Eya2 interaction inhibition. Q15475+O00167. AlphaScreen GST-Six1/His-Eya2 binding, biochemical; active compounds read low; control for the full effect not named in the record. activity change, % (concentration not given with the values). 0.56% of 360,000 active; in the data active = activity change below about -65%; inconclusive = about -30% to -65%; inactive = above about -30%; also: % is scaled to controls: 0 for no effect and ±100 for the full control effect
Target sequence (O00167 whole entry, looked up): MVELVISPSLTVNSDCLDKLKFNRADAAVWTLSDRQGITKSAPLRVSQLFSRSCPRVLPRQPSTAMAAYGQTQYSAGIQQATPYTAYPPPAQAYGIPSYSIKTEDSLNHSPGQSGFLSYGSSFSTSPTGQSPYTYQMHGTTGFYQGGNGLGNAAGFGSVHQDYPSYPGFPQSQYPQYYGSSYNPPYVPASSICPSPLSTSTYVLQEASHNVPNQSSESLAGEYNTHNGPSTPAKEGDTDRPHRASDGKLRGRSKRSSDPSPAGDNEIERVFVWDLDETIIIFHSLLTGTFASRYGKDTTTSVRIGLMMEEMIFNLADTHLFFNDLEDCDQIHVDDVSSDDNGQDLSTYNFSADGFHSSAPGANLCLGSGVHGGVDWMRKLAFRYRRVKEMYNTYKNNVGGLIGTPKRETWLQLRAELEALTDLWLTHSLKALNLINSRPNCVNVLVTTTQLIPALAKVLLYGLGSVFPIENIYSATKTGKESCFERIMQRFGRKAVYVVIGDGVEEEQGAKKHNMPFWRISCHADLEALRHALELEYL
Target sequence (Q15475 whole entry, looked up): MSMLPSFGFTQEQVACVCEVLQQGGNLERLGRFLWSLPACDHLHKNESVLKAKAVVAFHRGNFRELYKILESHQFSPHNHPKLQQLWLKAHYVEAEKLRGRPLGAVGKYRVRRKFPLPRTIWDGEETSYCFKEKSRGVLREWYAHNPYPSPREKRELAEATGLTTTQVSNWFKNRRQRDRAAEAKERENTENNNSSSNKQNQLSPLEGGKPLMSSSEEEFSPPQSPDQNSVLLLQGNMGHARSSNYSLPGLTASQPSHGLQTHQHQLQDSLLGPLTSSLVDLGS
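Six1/Eya2 binding was read as AlphaScreen signal after compounds were pinned into GST-Six1 plus His-tagged Eya2 (5X stock 250/500 nM) in pH 8.0 Tris/NaCl/TCEP buffer, beads added, then incubated 1 h, 37 C, dark.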
PINK1 modulator: modulators of PINK1 expression; PINK1 immunofluorescence, high-content cytometry, 24 h; 0.2% of 410,000 active; Potency, µM (titrated, usually from 76.6 µM), for inactives: at the highest dose activation (PINK1 increase), most hits filed as activators; active = well fitted activation curve with a large enough effect; inconclusive = small, poorly fitted or top-dose-only effect; inactive = flat fitted curve, though single readings scatter; cell line not stated here;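 also: potency is read from the fitted curve at half-maximal effect; % of control where 0% means no effect; nearly all actives have a fitted effect of over 65% in size; a mitochondrial uncoupler was the plate control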
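PINK1 protein level read as immunofluorescence by microplate cytometer in a fixed, stained stable cell line after 24 h exposure to five compound concentrations, with CCCP as control.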
* marks the source's active call; other numbers are inactive results; & = joins results of further samples; [ ] = another dose, or the depositor's remark.

The opening 4 entries (preview)
For Clc1ccc(CSc2nc3ccncc3[nH]2)cc1 the results were D2 PAM -10, TRPML1 agonist -0.1, CtBP-E1A inh 5, D2 ag -4.6, Six1-Eya2 blk 1 and PINK1 modulator 1.5%.
Screening CN(C)Cc1c(C(=O)N/N=C/c2ccco2)nnn1-c1nonc1N returned D2 PAM -3, TRPML1 agonist -0.4, CtBP-E1A inh 9, D2 ag -1.8, Six1-Eya2 blk -2 and PINK1 modulator 1.2%.
`COc1ccc(OC2CCN(S(=O)(=O)c3ccc(OC)cc3)CC2)cc1` gave D2 PAM 1, TRPML1 agonist 1.4&1.6, CtBP-E1A inh -6, D2 ag 4.6, Six1-Eya2 blk -3 and PINK1 modulator -0.5%&1.1%.
Cc1cc2oc(=O)ccc2cc1[N+](=O)[O-] was read as D2 PAM -6, TRPML1 agonist -0.9, CtBP-E1A inh 9, D2 ag -2.2, Six1-Eya2 blk 2 and PINK1 modulator 2.3%.

The list itself, from the first entry:
For Clc1ccc(CSc2nc3ccncc3[nH]2)cc1 the results were D2 PAM -10, TRPML1 agonist -0.1, CtBP-E1A inh 5, D2 ag -4.6, Six1-Eya2 blk 1 and PINK1 modulator 1.5%.
Screening CN(C)Cc1c(C(=O)N/N=C/c2ccco2)nnn1-c1nonc1N returned D2 PAM -3, TRPML1 agonist -0.4, CtBP-E1A inh 9, D2 ag -1.8, Six1-Eya2 blk -2 and PINK1 modulator 1.2%.
`COc1ccc(OC2CCN(S(=O)(=O)c3ccc(OC)cc3)CC2)cc1` gave D2 PAM 1, TRPML1 agonist 1.4&1.6, CtBP-E1A inh -6, D2 ag 4.6, Six1-Eya2 blk -3 and PINK1 modulator -0.5%&1.1%.
Cc1cc2oc(=O)ccc2cc1[N+](=O)[O-] was read as D2 PAM -6, TRPML1 agonist -0.9, CtBP-E1A inh 9, D2 ag -2.2, Six1-Eya2 blk 2 and PINK1 modulator 2.3%.
`Clc1ccc(Oc2cccc(/C=N/n3cnnc3)c2)cc1` gave D2 PAM 4, TRPML1 agonist 0.7, CtBP-E1A inh 1, D2 ag 1.9, Six1-Eya2 blk -5 and PINK1 modulator 1.0%.
Screening O=C(N/N=C/c1ccc(Cl)cc1Cl)c1cccc(F)c1 returned D2 PAM -6, TRPML1 agonist 1.5, CtBP-E1A inh 4, D2 ag 0.3, Six1-Eya2 blk 0 and PINK1 modulator 3.3%[38.3 µM].
Screening O=C(N/N=C/c1cccc(O)c1)c1ccc(COc2cccc3cccnc23)cc1 returned D2 PAM 2, TRPML1 agonist 0.7, D2 ag -0.3, Six1-Eya2 blk -2 and PINK1 modulator 9.9%.
Screening COc1cccc(/C=N/NC(=O)CCc2c(C)n[nH]c2C)c1O returned D2 PAM 2, TRPML1 agonist -0.5, CtBP-E1A inh inconclusive, D2 ag -3.0, Six1-Eya2 blk inconclusive and PINK1 modulator 0.4%.
`Cc1cnc(C(=O)N(c2ccc(N3CCOCC3)cc2)C2C(=O)Nc3ccccc3N=C2c2ccc(F)cc2)cn1` (stereo not drawn) gave D2 PAM -4, TRPML1 agonist -0.8, CtBP-E1A inh -8, D2 ag -1.2, Six1-Eya2 blk -3 and PINK1 modulator 2.9%.
Screening CC(/C=C/c1ccc(N(C)C)cc1)=N\N=C1\NC(=O)CC(C(=O)Nc2ccccc2)S1 (stereo not drawn) returned D2 PAM 15, TRPML1 agonist 2.6, CtBP-E1A inh -1, D2 ag -1.0, Six1-Eya2 blk inconclusive and PINK1 modulator -0.2%.
O=C(Nc1ccc(Cl)cn1)C1CCN(c2ncnc3c2nc2n3CCCCC2)CC1 was read as D2 PAM -7, TRPML1 agonist 0.6, CtBP-E1A inh -8, D2 ag 1.5, Six1-Eya2 blk -1 and PINK1 modulator 4.2%.
`C=CCOC(=O)c1ccccc1C(=O)OCC1CO1` (stereo not drawn) gave D2 PAM -2, TRPML1 agonist -0.2, CtBP-E1A inh 5, D2 ag -1.7, Six1-Eya2 blk 2 and PINK1 modulator -0.2%.
For O=C(CN1C(=O)S/C(=C\c2cccs2)C1=O)Nc1ccc(C(=O)O)c(O)c1 the results were D2 PAM -6, TRPML1 agonist 2.4, D2 ag -1.5, Six1-Eya2 blk -22 and PINK1 modulator 0.2%.
`Cc1nnc(NC2=NCCC2)s1` gave D2 PAM -8, TRPML1 agonist 0.4, CtBP-E1A inh 0, D2 ag -0.8, Six1-Eya2 blk 5 and PINK1 modulator -1.3%.
COc1ccccc1-c1csc(C(O)c2cccc(Cl)c2)n1 (stereo not drawn) was read as D2 PAM -4, TRPML1 agonist 0.2, CtBP-E1A inh 10, D2 ag -5.8, Six1-Eya2 blk 4 and PINK1 modulator 14%.
Screening Cc1cc2cc(C)c3nnc(SCC(=O)N4CCN(C(=O)c5ccco5)CC4)n3c2cc1C returned D2 PAM 0, TRPML1 agonist -0.7, CtBP-E1A inh 8, D2 ag -0.9, Six1-Eya2 blk -17 and PINK1 modulator -3.3%[38.3 µM].
For COc1ccccc1N1CCN(C(=O)c2cccc(S(=O)(=O)N3CCCCCC3)c2)CC1 the results were D2 PAM -1, TRPML1 agonist 0.2, CtBP-E1A inh -1, D2 ag -2.5, Six1-Eya2 blk -2 and PINK1 modulator 0.9%.
`O=[N+]([O-])c1ccc(Nc2c3ccccc3nc3ccccc23)cc1` gave D2 PAM 3, TRPML1 agonist 8.1, CtBP-E1A inh 0, D2 ag -1.5, Six1-Eya2 blk inconclusive and PINK1 modulator inconclusive.
`CC(OC(=O)c1cc2ccccc2o1)C(=O)Nc1ccc(N2CCOCC2)cc1` (stereo not drawn) gave D2 PAM -13, TRPML1 agonist 0.3, CtBP-E1A inh -12, D2 ag -5.8, Six1-Eya2 blk -1 and PINK1 modulator 8.6%.
Cc1ccc(CN2CCC(CNC(=O)c3ccc(NC(=O)C4=CSCCO4)cc3)CC2)cc1 was read as D2 PAM -14, TRPML1 agonist 0.4, D2 ag -0.2, Six1-Eya2 blk -2 and PINK1 modulator 2.9%.
`O=C(COC(=O)c1cccnc1Cl)Nc1cc(S(=O)(=O)N2CCOCC2)ccc1Cl` gave D2 PAM -4, TRPML1 agonist 0.1, CtBP-E1A inh -5, D2 ag -1.8, Six1-Eya2 blk 3 and PINK1 modulator 0.4%.
`COc1ccccc1C(=O)NC(CCSC)C(=O)NCCCn1nc(C)cc1C` (stereo not drawn) gave D2 PAM 22, TRPML1 agonist -1.2, CtBP-E1A inh -4, D2 ag -1.1, Six1-Eya2 blk 1 and PINK1 modulator 4.0%.
Cn1c(CC(=O)NNC(=O)c2ccccc2[N+](=O)[O-])nc2ccccc21 was read as D2 PAM -6, TRPML1 agonist -0.4, D2 ag -3.9, Six1-Eya2 blk -6 and PINK1 modulator 1.5%.
For COCCSc1nc2c(c(=O)[nH]c(=O)n2C)n1Cc1cccc(C)c1 the results were D2 PAM -5, TRPML1 agonist -0.8, CtBP-E1A inh 3, D2 ag -2.8, Six1-Eya2 blk 0 and PINK1 modulator 5.3%.
For COc1ccc2nc(NC(=O)Nc3cccc4ccccc34)sc2c1 the results were D2 PAM -6, TRPML1 agonist 1.1, D2 ag 4.7, Six1-Eya2 blk -10 and PINK1 modulator 9.8%.
Screening CCOC(=O)C1CCCN(C(=O)CNC(=O)c2nn(-c3ccc(OC)c(Cl)c3)c(=O)c3ccccc23)C1 (stereo not drawn) returned D2 PAM 11, TRPML1 agonist 0.6, CtBP-E1A inh 1, D2 ag -1.3, Six1-Eya2 blk -4 and PINK1 modulator 0.6%.
For COCCCNC(=O)/C(C#N)=C/c1c(N2CCN(c3ccccc3)CC2)nc2ccccn2c1=O the results were D2 PAM -2, TRPML1 agonist -1.4, CtBP-E1A inh -4, D2 ag 3.4, Six1-Eya2 blk -15 and PINK1 modulator 0.3%.
CSc1cccc(N2C(=O)C3CCCN3C2=S)c1 (stereo not drawn) was read as D2 PAM -4, TRPML1 agonist 1.3, CtBP-E1A inh 0, D2 ag 1.4, Six1-Eya2 blk -2 and PINK1 modulator 1.5%.
Screening CCOc1ccc(NC(=O)CSc2nnc(-c3ccco3)n2C)cc1 returned D2 PAM -11, TRPML1 agonist -0.7, CtBP-E1A inh 2, D2 ag -1.5, Six1-Eya2 blk -1 and PINK1 modulator 1.1%.
`O=C(Nc1ccnn1C1CCN(C(=O)Cc2cccc(Cl)c2)CC1)C1CC1` gave D2 PAM -1, TRPML1 agonist 0.1, CtBP-E1A inh -3, D2 ag 1.7, Six1-Eya2 blk -2 and PINK1 modulator 2.7%.
For O=C(N/N=C/c1ccco1)c1cc(C2CC2)[nH]n1 the results were D2 PAM -6, TRPML1 agonist 0.1, CtBP-E1A inh 6, D2 ag -2.3, Six1-Eya2 blk -6 and PINK1 modulator 0.6%.
For COc1ccc(S(=O)(=O)N2CCOCC2)cc1NC(=O)CC(C)c1ccccc1 (stereo not drawn) the results were D2 PAM -10, TRPML1 agonist 0.3, D2 ag -2.0, Six1-Eya2 blk 7 and PINK1 modulator 3.5%.
Screening COCCN(CCNC(=O)c1ccc(NC2=NC3CS(=O)(=O)CC3S2)cc1)Cc1ccco1 (stereo not drawn) returned D2 PAM -4, TRPML1 agonist 0.0, CtBP-E1A inh 11, D2 ag -7.7, Six1-Eya2 blk 5 and PINK1 modulator 2.6%.
`O=C(Cc1cccs1)NC(Cc1c[nH]c2ccccc12)C(=O)O` (stereo not drawn) gave D2 PAM -8, TRPML1 agonist -0.2, CtBP-E1A inh 8, D2 ag -2.4, Six1-Eya2 blk 1 and PINK1 modulator 0.7%.
Screening CCOC(=O)c1c(C)oc2c1c(C=NCc1ccccn1)c(O)c1ccccc12 returned D2 PAM -22, TRPML1 agonist 1.2, CtBP-E1A inh -1, D2 ag -12, Six1-Eya2 blk -75* and PINK1 modulator inconclusive.
For CCN(CC)CCNC(=O)c1cn(CC)c2ccc(S(=O)(=O)N(C)C3CCCCC3)cc2c1=O the results were D2 PAM -8, TRPML1 agonist 0.0&-1.3, CtBP-E1A inh -1, D2 ag -2.0, Six1-Eya2 blk -2 and PINK1 modulator -1.4%&0.0%.
Screening CCOc1ccc(Cl)cc1/C=C1/C(=O)ON=C1C returned D2 PAM 1, TRPML1 agonist -0.5, CtBP-E1A inh -9, D2 ag -2.3, Six1-Eya2 blk 1 and PINK1 modulator 6.8%.
`CC(C)(C)c1ccc(S(=O)(=O)N2CCN(CCC#N)CC2)cc1` gave D2 PAM -1, TRPML1 agonist 0.6, CtBP-E1A inh 1, D2 ag 1.7, Six1-Eya2 blk -2 and PINK1 modulator 1.6%.
Screening CCC1([N+](=O)[O-])COC(c2ccc(C)cc2)OC1 (stereo not drawn) returned D2 PAM -7, TRPML1 agonist 1.7, CtBP-E1A inh -6, D2 ag 0.4, Six1-Eya2 blk -9 and PINK1 modulator 12%.
For COc1ccccc1/C=N/NS(=O)(=O)c1ccccc1 the results were D2 PAM -11, TRPML1 agonist 1.7, D2 ag 0.9, Six1-Eya2 blk 0 and PINK1 modulator 1.1%.
Screening C=CCN1C(=O)CSc2ccc(C(=O)NC3CCCCC3)cc21 returned D2 PAM -12, TRPML1 agonist -1.3, CtBP-E1A inh 1, D2 ag -1.4, Six1-Eya2 blk 1 and PINK1 modulator 0.2%.
